KCNQ2 enhance: enhances the rat KCNQ2 potassium channel. CHO-K1 KCNQ2, FluxOR thallium flux fluorescence; stronger effect = higher value. B-score at 10 µM. 310,000 compounds, 0.54% hits;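 active = fluorescence ratio B-score at least 3 SD of library B-scores, with initial fluorescence B-score within 3 SD, cut at about 5.3 in these data; same plate scores as AID 2156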;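 also: B-score of peak minus minimum over baseline fluorescence ratio after K+ and Tl+ stimulus; positive B-score means potentiation of KCNQ2 with more thallium influx and brighter signal; only the inactives scoring about 0 or higher are listed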
Target sequence (O88943 whole entry, looked up): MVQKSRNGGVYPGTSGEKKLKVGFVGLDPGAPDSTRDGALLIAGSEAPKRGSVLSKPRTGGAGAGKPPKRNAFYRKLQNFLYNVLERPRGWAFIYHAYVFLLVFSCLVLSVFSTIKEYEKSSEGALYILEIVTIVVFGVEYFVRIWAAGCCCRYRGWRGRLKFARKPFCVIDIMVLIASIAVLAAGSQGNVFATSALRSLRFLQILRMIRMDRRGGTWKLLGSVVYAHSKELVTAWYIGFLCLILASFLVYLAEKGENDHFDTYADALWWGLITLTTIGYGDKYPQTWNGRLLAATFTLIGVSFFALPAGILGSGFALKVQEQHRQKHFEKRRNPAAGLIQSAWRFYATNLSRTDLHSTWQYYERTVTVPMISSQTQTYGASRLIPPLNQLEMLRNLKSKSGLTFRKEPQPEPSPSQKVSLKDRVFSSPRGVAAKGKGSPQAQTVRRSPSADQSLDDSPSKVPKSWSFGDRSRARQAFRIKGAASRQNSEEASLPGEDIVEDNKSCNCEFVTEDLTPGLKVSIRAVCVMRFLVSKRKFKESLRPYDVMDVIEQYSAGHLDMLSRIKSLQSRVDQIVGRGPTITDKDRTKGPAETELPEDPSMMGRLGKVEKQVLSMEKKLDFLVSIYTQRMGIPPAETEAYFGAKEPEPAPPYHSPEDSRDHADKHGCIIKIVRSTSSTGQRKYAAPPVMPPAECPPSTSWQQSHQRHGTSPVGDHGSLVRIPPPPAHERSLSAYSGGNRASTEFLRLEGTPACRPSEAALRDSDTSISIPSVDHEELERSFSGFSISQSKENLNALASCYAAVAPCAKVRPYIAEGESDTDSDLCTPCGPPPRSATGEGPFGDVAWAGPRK
KCNQ2 enhance baseline: further read-out of KCNQ2 enhance, marked with its call; B-score; compound at 10 µM; measured here: initial fluorescence intensity artifact check;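 brightness before thallium and not channel activity; 0 = typical well and far values either way flag optical interference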
Active calls of the source: *.

The line under a structure holds: KCNQ2 enhance baseline	KCNQ2 enhance
> COc1ccccc1NC(=O)N1CCCC1C(=O)Nc1ccc2c(c1)OCO2 (stereo not given)
→ 0.22	0.01
> Nc1cc(=O)[nH]c(SCC(=O)Nc2ncc(C(F)(F)F)cc2Cl)n1
→ -1.7	0.92
> COc1ccccc1C1SCCN1C(=O)c1ccc([N+](=O)[O-])cc1 (stereo not given)
→ 0.48	1.4
> CCOC(=O)Nc1ccc2c(c1)nc1n2CCN(CCOC)C1
→ -0.96	1.8
> Cc1ccc(-c2nnn(CC(=O)N3CCC(C)CC3)n2)o1
→ -0.71	0.52
> Cn1c(O)c(N=NC(=O)CNC(=O)/C=C/c2ccccc2)c2ccccc21
→ -0.52	0.01
> CCCc1cc(=O)[nH]c(SCC(=O)c2c(N)n(C)c(=O)n(C)c2=O)n1
→ 0.05	0.35
> Cc1ncoc1C(=O)Nc1cccc(Cl)c1C
→ -0.07	1
> Cc1cc(C(c2ccc(O)cc2)c2cc(C)c(O)cc2C)c(C)cc1O
→ 0.07	0.51
> Nn1c(COc2cccc(Cl)c2)nc2ccccc2c1=O
→ 1.4	1.6
> CCc1nc(C)cn1S(=O)(=O)c1cc(F)ccc1OC
→ 1.2	1.9
> COc1ccc(-c2cc(C(F)(F)F)nc(SCC(=O)Nc3ccc4c(c3)OCO4)n2)cc1
→ -0.28	0.11
> C/C(N)=C(/C#N)C(=O)COC(=O)C1CCN(C(=O)c2ccc(Cl)cc2)CC1
→ -2	1.4
> CCOC(=O)C1(Cc2ccccc2)CCN(Cc2cn[nH]c2-c2ccccc2)CC1
→ -0.53	2.2
> Fc1ccc(CSc2nnc(-c3cccnc3)n2Cc2ccco2)cc1
→ 1.7	0.23
> COc1ccccc1N1CCN(C2CCCN(C(=O)c3ccoc3C)C2)CC1 (stereo not given)
→ -0.01	0.03
> COCCCN(C(=O)CCOc1ccc(C(C)(C)C)cc1)c1c(N)n(Cc2ccccc2)c(=O)[nH]c1=O
→ 1.1	0.13
> COCC(=O)N1CCCC(C(=O)c2ccc(-c3ccccc3)cc2)C1 (stereo not given)
→ 0.12	0.01
> COc1ccc(C(=O)N2CCN(c3ccc(C)cc3C)CC2)cc1OC
→ -1.6	0.62
> c1ccc2c(c1)NCCS2
→ 0.08	0.29

Some of these compounds in order of the KCNQ2 enhance baseline value, descending.
The line under a structure holds: KCNQ2 enhance baseline	KCNQ2 enhance
> COCC(=O)N1CCCC(C(=O)c2ccc(-c3ccccc3)cc2)C1 (stereo not given)
→ 0.12	0.01
> CCOC(=O)C1(Cc2ccccc2)CCN(Cc2cn[nH]c2-c2ccccc2)CC1
→ -0.53	2.2
> CCOC(=O)Nc1ccc2c(c1)nc1n2CCN(CCOC)C1
→ -0.96	1.8

(continued)
The line under a structure holds: KCNQ2 enhance baseline	KCNQ2 enhance
> Cc1ccc(C)c(S(=O)(=O)NCc2ccncc2)c1
→ -1.2	0.92
> O=C(c1cccc(N2C(=O)C3C4C=CC(C4)C3C2=O)c1)N1CCN(c2ccc(F)cc2)CC1 (stereo not given)
→ -0.51	2.5
> CC(C)CCNC(=O)C(c1cccs1)N(CC1CCCO1)C(=O)Cn1nnc2ccccc21 (stereo not given)
→ -0.03	1.6
> O=C(Nc1ccc2c(c1)OCO2)C1CC(=O)N(CCc2ccccc2)C1 (stereo not given)
→ -1	4.6
> COc1cc(C(=S)N2CCN(c3cccc(Cl)c3)CC2)ccc1O
→ 3.2	0.08
> CC(=O)Nc1ccc(S(=O)(=O)NC(CC(=O)NC2CCCCC2C)C(C)C)cc1 (stereo not given)
→ 1.6	0.67
> CCN(CC)CCN1C(=O)c2oc3ccccc3c(=O)c2C1c1cccc(Br)c1 (stereo not given)
→ -1.4	1.2
> Cn1c(=O)[nH]c(=O)c2c1nc(Br)n2CCSc1nnnn1-c1ccccc1
→ 1.8	0.68
> Cc1cccc(C)c1NC(=O)N1CCCCCCC1
→ 0.2	2.4
> O=C(Oc1ccc(NC2=C(Cl)C(=O)c3ccccc3C2=O)cc1)c1ccc([N+](=O)[O-])cc1
→ 0.62	0.04
> COc1ccc(S(=O)(=O)Nc2cc3c4c(c2)C(C)C(=O)N4CCC3)cc1OC (stereo not given)
→ 2.4	0.7
> COCCNC(=O)c1ccc(-c2csc(C)n2)cc1
→ 0	0.21
> CC(C)NC(=O)CSCc1cccc(Br)c1
→ 0	0.01
> Cc1ccc(NC(=O)CN2C(=O)C3CC=CCC3C2=O)cc1S(=O)(=O)N1CCOCC1 (stereo not given)
→ -0.17	1.5
> O=C(CN1C(=O)COc2ccccc21)NCCN1CCC(Cc2ccccc2)CC1
→ 0.08	2.1
> CCOc1cc(/C=N/NC(=O)C(OC)c2ccccc2)ccc1O (stereo not given)
→ -0.71	0.51
> O=C(CCC(=O)c1ccccc1)NCCc1c[nH]c2ccccc12
→ 1.8	0.57
> Cc1cc(C)cc(-n2nnc(C(=O)NCc3ccccc3Cl)c2N)c1
→ 0.3	0.56
> COc1nc(N)nc(NC23CC4CC(CC(C4)C2)C3)n1
→ 0.6	0.01
> COc1ccc(OC)c(/C=C/C(=O)OCC(=O)Nc2ccc3c(c2)OCCO3)c1
→ -0.8	0.01
> CCOCCCN1C(=O)C2C(C(=O)Nc3ccc(OCC)cc3)C3C=CC2(O3)C1C(=O)NC1CCCCC1 (stereo not given)
→ -0.73	0.54
> COc1ccc(CCNC(=O)C2CCCN2S(=O)(=O)c2ccc(F)cc2)cc1OC (stereo not given)
→ -0.11	0.77
> COc1ccc(OC)c(-c2cc(C(=O)NCCN3CCOCC3)no2)c1
→ -2.1	0.15
> CCC(C(=O)OCC(=O)Nc1ccc(C(N)=O)cc1)c1ccccc1 (stereo not given)
→ -0.74	2.6
> O=C(CNC(=O)c1ccc2c(c1)OCCO2)N/N=C/c1cccc(Br)c1
→ -1.2	0.11
> Cc1cc2c(cc1S(=O)(=O)N1CCN(c3ccccc3)CC1)OCC(=O)N2
→ 3.4	0.91
> COc1ccc(S(=O)(=O)N2CCOCC2)cc1C(=O)N1CCCCC1
→ 0.01	0.52
> COc1ccc2cc(C(=O)Nc3ccc(S(N)(=O)=O)cc3)sc(=O)c2c1OC
→ 0.12	0.1
> Cc1ccc(C)c(C(=O)Nc2c(C(N)=O)oc3ccccc23)c1
→ -0.15	0.34
> O=C(c1c[nH]c2ccc(S(=O)(=O)N3CCC4(CC3)OCCO4)cc2c1=O)N1CCOCC1
→ -0.73	0.93
> Cc1ccc(Cn2cccc2/C=N/NC(=S)Nc2ccc(C)cc2)cc1
→ 0.9	0.92
> CC(C)(C)c1ccc(OCc2ccc(C(=O)N/N=C3\CC4CC=CC34)cc2)cc1 (stereo not given)
→ 0.41	0.01
> Cc1nn(C(C)C(=O)NCCc2ccccc2)c(=O)c2cc3occc3n12 (stereo not given)
→ 2.6	1.2
> CC(C)CCNC1=CC(=O)CC(c2ccccc2)C1 (stereo not given)
→ -0.69	0.4
> CCc1nc(Nc2ccc(NC(C)=O)cc2)c2oc3ccccc3c2n1
→ 1.4	0.34
> O=S(=O)(Nc1cccnc1)c1ccc(Cl)c(C(F)(F)F)c1
→ 0.21	1.2
> O=C(Nc1ccc(OC(F)(F)F)cc1)c1cnccn1
→ -0.72	0.1
> Cc1ccc(N=C2NC(=O)/C(=C\c3ccc(C)s3)S2)cc1
→ -0.06	1.8
> Cc1c(C(=O)O)sc2nc(SCC(=O)Nc3ccc(S(=O)(=O)NC(C)(C)C)cc3)[nH]c(=O)c12
→ -0.73	1.7
> Oc1[nH]c2ccccc2c1N=Nc1nncc2ccccc12
→ -0.38	0.99
> C=CCC(NCc1ccccc1)c1ccc(OC)cc1 (stereo not given)
→ 0.4	0.02
> COc1ccc(/C=N/NC(=S)Nc2ccccc2[N+](=O)[O-])cc1O
→ -1.3	1.2
> COc1ccc(/C=C/C(=O)NC(=S)Nc2ccc(C(=O)O)cc2)cc1
→ -0.89	0.41
> O=S(=O)(O)c1ccc(N=Nc2ccccc2)cc1
→ -1	0.12
> O=[N+]([O-])c1ccccc1Oc1ccc(C(F)(F)F)cn1
→ -1.1	0.3
> O=C(Nc1ccccc1)N1CCN(Cc2ccccc2)CC1
→ -0.08	0.24
> CC1CCN(CC(O)COCCOc2ccc(Br)cc2)CC1 (stereo not given)
→ -2.7	1.3
> Cn1c(N)c(Br)c(-c2ccc(F)cc2)c(C#N)c1=O
→ 8.8	2.7
> CO/N=C/c1ccc(N2CCN(C(=O)c3cccc(C(F)(F)F)c3)CC2)c([N+](=O)[O-])c1
→ 0	1.7
> COc1cc(C(=O)N/N=C/c2ccc(OC(=O)c3ccccc3)c(OC)c2)ccc1O
→ 0.86	0.78
> COCc1c(C(=O)NC(C)c2ccc(S(N)(=O)=O)cc2)oc2ccccc12 (stereo not given)
→ -0.76	0.26
> COc1ccc(OC)c(NC(=O)CCN2CC(C)CC(C)C2)c1 (stereo not given)
→ -1.1	1.9
> Cc1cc(C(=O)OCC(=O)Nc2nccs2)c2ccccc2n1
→ -1	0.68
> NC(=O)N1c2ccccc2C=Cc2ccccc21
→ -0.89	0.11
> COC(=O)C1=C(C(=O)OC)[C@@H]2N(Cc3ccccc3)c3ccccc3[C@@]23C[C@@H](C(=O)OC)N(C(=O)NC2CCCCC2)C3=N1
→ 0.92	0.95
> CCSCCOC(=O)C1=C(C)N(C)C(=O)NC1c1cc(OC)ccc1OC (stereo not given)
→ 2.6	1.1
> COc1ccc(-n2ncc3c(NC(C)C)ncnc32)cc1
→ -0.31	2.4
> CCOc1ccc(S(=O)(=O)Nc2ccccc2C(=O)Nc2ccccc2N2CCOCC2)cc1
→ 1	0.02
> O=C(N/N=C/c1ccccc1C(=O)O)c1ccncc1
→ -0.71	1.4
> CCc1ccc(NC(=O)c2noc3c2CCCCC3)cc1
→ -0.21	0.21

Compound profiles, from the list above. Screens in order: KCNQ2 enhance baseline	KCNQ2 enhance
COc1ccc(OC)c(NC(=O)CCN2CC(C)CC(C)C2)c1 (stereo not given) is entered as -1.1	1.9
CCOc1ccc(S(=O)(=O)Nc2ccccc2C(=O)Nc2ccccc2N2CCOCC2)cc1 is entered as 1	0.02
CO/N=C/c1ccc(N2CCN(C(=O)c3cccc(C(F)(F)F)c3)CC2)c([N+](=O)[O-])c1 is entered as 0	1.7
Cc1cc(C(=O)OCC(=O)Nc2nccs2)c2ccccc2n1 is entered as -1	0.68
CC1CCN(CC(O)COCCOc2ccc(Br)cc2)CC1 (stereo not given) is entered as -2.7	1.3

Carrying on.
The line under a structure holds: KCNQ2 enhance baseline	KCNQ2 enhance
> Cc1ccc(C(=O)C(C)OC(=O)c2n[nH]c(=O)c3ccccc23)cc1 (stereo not given)
→ -0.14	0.15
> C/C(=N/Nc1ncc(Br)cn1)c1ccc([N+](=O)[O-])cc1
→ -0.12	3
> Cc1ccc(N2CC(NS(=O)(=O)c3cccs3)CC2=O)cc1 (stereo not given)
→ -2	1.4
> CCN(CC)CCN1C(=O)C(=O)/C(=C(/O)c2ccncc2)C1c1ccccc1F (stereo not given)
→ 0.98	0.97
> O=C(Nc1cc(-c2ccccc2)[nH]n1)c1ccc(Cl)cc1
→ -0.51	1.7
> Cc1cc(OC(C)C(=O)NCCCN2CCOCC2)c2c(C)c(C)c(=O)oc2c1 (stereo not given)
→ -1	0.07
> Cc1cccc(/C(N)=N/OC(=O)C23CC4CC(CC(C4)C2)C3)c1
→ -1.5	0.01
> Clc1ccc(OCCNCCc2ccccc2)cc1
→ 0.35	0.03
> CCCC(=O)N/C(N)=N/c1nc(C)c2cc(C)ccc2n1
→ 0.42	0.16
> CN(C)/C=C(\C#N)C(=O)N/N=C/c1ccc(F)cc1
→ -0.99	0.02
> CCOC(=O)c1cnc(SCC(=O)Nc2ccccc2C(=O)OC)nc1N
→ -1.7	0.68
> CC(=O)OC(C(=O)Nc1ccccc1)C(C)S(=O)(=O)c1ccccc1 (stereo not given)
→ -2.9	0.03
> COc1ccccc1CNCc1cc(Br)ccc1OC
→ 0.03	0.87
> Cc1c[n+](CC(=O)c2ccccc2)cs1
→ -1.2	0.2
> O=C(CCCC(=O)NCCc1ccccc1)NCCc1ccccc1
→ 0.07	0.11
> Nc1ccc(C23CC4CC(CC(C4)C2)C3)cc1
→ -0.6	3.1
> CC(=O)N/N=C(\C)CC(=O)NC(C)(C)C
→ 0.88	0.79
> Cc1cc(C)c(C(N)=O)c(SCC(=O)c2ccc(Cl)cc2)n1
→ 0.04	1
> CCOC(=O)CNC=C(C(=O)OCC)C(=O)OCC
→ 0.6	2.2
> COc1cc(/C=C(\C#N)c2nc3ccccc3s2)cc([N+](=O)[O-])c1O
→ -1.9	0.16
> CC(C)CNC(=O)NC(=O)COC(=O)C1CSC2(c3ccc(F)cc3)CCC(=O)N12 (stereo not given)
→ -0.78	1.6
> Cc1cccc(OCCC(=O)Nc2nnc(C)s2)c1
→ 0.23	1.6
> COc1cccc(CNC(=O)CNS(=O)(=O)c2ccc(Br)s2)c1
→ -1.6	1.4
> COc1ccc(CCNC2CC(=O)N(C)C2=O)cc1OC (stereo not given)
→ -0.03	1.5
> O=C(Cn1nnc(-c2ccccc2)n1)OCc1ccccc1
→ -1	1.1
> COc1ccccc1-n1c(-c2cc(-c3ccco3)[nH]n2)n[nH]c1=S
→ 0.5	1.4
> Cc1sc2nc(CSc3nc4ccccc4c(=O)n3CCCN3CCOCC3)[nH]c(=O)c2c1C
→ 2.1	0.94
> COc1ccccc1NS(=O)(=O)c1cc(NC(=O)c2ccncc2)ccc1N1CCOCC1
→ 0.26	0.1
> O=C1C2C3C=CC(C4CC34)C2C(=O)N1c1nccs1 (stereo not given)
→ 0.46	0.89
> Cc1cc(N2CCc3ccccc32)n2ncnc2n1
→ -1.9	0.17
> O=C(Nc1ccc(Cl)c(Cl)c1)Nc1ccc([N+](=O)[O-])cn1
→ -0.29	0.01
> Cn1c(=O)c2cn3ncccc3c2n(C)c1=O
→ -0.54	1
> Cn1cc2cccc([N+](=O)[O-])c2n1
→ -0.75	0.31
> CCCNC(=O)c1noc2c1CCc1cc(OC)ccc1-2
→ 0.39	0.54
> CC(C)(C)NC(=O)C(c1ccccn1)N(C(=O)C1CSC(=O)C1)c1cccc(F)c1 (stereo not given)
→ 1.2	1.1

Screening data from PubChem BioAssay.

Only part of the results is shown; rates above refer to the full screens.
